HKDC1 inhibitor: inhibitors of human hexokinase HKDC1; recombinant HKDC1, G6PDH/diaphorase resazurin coupled fluorescence; 340,000 compounds, 0.16% hits; inhibition, % at 20 µM; Q2TB90;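 active = inhibition above about 35% when tested at 20 µM, limit read from the data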;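 note: plate controls were DMSO wells with enzyme for no effect and DMSO wells lacking enzyme for full effect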
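Assay system – recombinant HKDC1 (HK5) hexokinase enzyme, produced in-house · Input – HKDC1 at 5 µg/mL · Reagent – glucose plus 1 mM ATP as hexokinase substrates · Timing – 90 min reaction incubation at room temperature, dark · Measured by – G6PDH/diaphorase-coupled fluorescence, 1 mM NADP, 100 µM resazurin, 525/613 nm · Benchmarks – DMSO-enzyme wells negative, buffer-substituted wells positive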
SENP8 inh: inhibitors of human SENP8 protease. purified SENP8, Z-RLRGG-aminoluciferin cleavage, luminescence. Q96LD8. 330,000 compounds, 1.2% hits. inhibition, % at 10 µM; in the data active = inhibition above about 50%
SENP7 inh: inhibitors of human SENP7 protease. recombinant SENP7, Z-RLRGG-aminoluciferin luminescence, 40 min. inhibition, % at 5 µM. 330,000 compounds, 1.5% hits. AID 434973. Q9BQF6;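 active = inhibition above about 50% at the single test dose, limit read from the data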;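 note: plate controls were DMSO with enzyme for no effect and no enzyme buffer wells for full effect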
Target sequence (Q9BQF6 706-1050 limits assumed): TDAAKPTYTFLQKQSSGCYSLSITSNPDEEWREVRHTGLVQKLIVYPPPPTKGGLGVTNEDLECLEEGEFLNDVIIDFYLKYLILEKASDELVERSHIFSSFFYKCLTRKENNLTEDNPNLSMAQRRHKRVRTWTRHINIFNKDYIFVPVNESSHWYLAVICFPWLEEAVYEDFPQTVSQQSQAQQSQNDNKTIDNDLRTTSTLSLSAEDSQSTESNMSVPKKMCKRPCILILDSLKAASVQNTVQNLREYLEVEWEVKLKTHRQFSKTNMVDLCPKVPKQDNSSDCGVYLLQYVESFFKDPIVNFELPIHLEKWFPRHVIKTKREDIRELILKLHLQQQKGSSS
UBC13 inh: inhibitors of human UBC13 polyubiquitin chain formation | P61088 | TR-FRET | inhibition, % at 20 µM | 330,000 compounds, 0.47% hits; in the data active = inhibition above about 45%, passing the limit was not always enough
SENP6 block: inhibitors of human SENP6 protease | Q9GZR1 | Recombinant SENP6 catalytic domain, aminoluciferin luminescence | inhibition, % at 10 µM | 330,000 compounds, 1.8% hits | AID 2599;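 active = inhibition above about 50% at the single tested dose, limit read from the data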;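 note: plate controls were DMSO wells with enzyme for no effect and DMSO wells lacking enzyme for full effect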
* hit, by the source's call; . = no result given. A portion of the library, so the mix of outcomes need not match the whole.

1: CC(=O)Nc1cccc(-c2nnc(-c3ccc(C)cc3)o2)c1
2: COc1ccc(C2CC(c3ccccc3)=NN2C(=O)CCCC(=O)O)cc1 (stereo not drawn)
3: Cc1nc(-c2ccccc2)c(-c2ccccc2)[nH]1
4: O=C(O)c1cc(NS(=O)(=O)c2cccc3ccccc23)ccc1O
5: Cc1nc2ccc(S(=O)(=O)NCC(=O)NCCN3CCCCCC3)cc2s1
6: C1CCN2C[C@@H]3C[C@@H](CN4CCCC[C@@H]34)[C@H]2C1
7: N#Cc1c(-c2cccc(Br)c2)cc(-c2ccco2)[nH]c1=O
8: O=C(c1ccc(NS(=O)(=O)c2ccccc2)cc1)N1CCN(c2ccccc2)CC1
9: O=C1NC[C@H](c2ccccc2)OC(=O)[C@H](Cc2ccc(F)cc2)CC/C=C/C[C@H]1CC(=O)N(CCO)Cc1ccccc1
10: Cc1cccc(N2CCN(C(=O)c3cc4c(=O)n(C)c5ccccc5c4n3C)CC2C)c1 (stereo not drawn)

Compound,1,2,3,4,5,6,7,8,9,10
SENP7 inh,5,-7,-6,-9,3,.,2,6,3,19
HKDC1 inhibitor,0,-6,-2,2,3,-5,6,-3,3,3
SENP6 block,10,-17,-6,-25,-4,.,23,14,-9,26
UBC13 inh,17,4,4,-4,18,.,-7,-3,-7,2
SENP8 inh,-11,-5,-3,-6,-2,.,1,6,-9,-3

One compound at a time, as listed above.
O=C(c1ccc(NS(=O)(=O)c2ccccc2)cc1)N1CCN(c2ccccc2)CC1 is listed with SENP7 inh: 6; HKDC1 inhibitor: -3; SENP6 block: 14; UBC13 inh: -3; SENP8 inh: 6
Cc1nc(-c2ccccc2)c(-c2ccccc2)[nH]1 is listed with SENP7 inh: -6; HKDC1 inhibitor: -2; SENP6 block: -6; UBC13 inh: 4; SENP8 inh: -3

5 compounds already listed, ordered by the number in SENP7 inh, low to high:
nr | canonical_smiles | SENP7 inh
4 | O=C(O)c1cc(NS(=O)(=O)c2cccc3ccccc23)ccc1O | -9
2 | COc1ccc(C2CC(c3ccccc3)=NN2C(=O)CCCC(=O)O)cc1 (stereo not drawn) | -7
5 | Cc1nc2ccc(S(=O)(=O)NCC(=O)NCCN3CCCCCC3)cc2s1 | 3
1 | CC(=O)Nc1cccc(-c2nnc(-c3ccc(C)cc3)o2)c1 | 5
10 | Cc1cccc(N2CCN(C(=O)c3cc4c(=O)n(C)c5ccccc5c4n3C)CC2C)c1 (stereo not drawn) | 19

Source: PubChem
